TAR Tat displ: TAR RNA-Tat peptide displacers, HIV-1, primary screen, biochemical, FRET, FAM/TAMRA-labeled Tat | z-score (test concentration not listed) | 100,000 compounds, 0.6% hits | HIV-1 TAR RNA, Tat peptide displacement FRET; hits give high values;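 note: score is relative to mean and SD of negative controls; some compounds called inactive have numbers as strong as hits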
CDC25B-CDK2 inh: primary biochemical HTRF screen for blockers of M-phase inducer phosphatase 2 binding to CDK2/cyclin A; 94,000 compounds, 0.72% hits; z-score (test concentration not listed); AID 1259370, 2018; HTRF CDC25B-CDK2/CyclinA binding, anti-His/anti-Flag; hits give high values;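 note: score is relative to mean and SD of negative controls; strong numbers were not always called active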
Starred values were filed as active, the others as inactive; x = no result given.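 Rule for the calls: active = z-score from 3 up in half or more of its runs; inactive = the rest.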

Results follow in this order: TAR Tat displ | CDC25B-CDK2 inh
CCCCSc1nc(NCCO)c2c3c(sc2n1)COC(C)(CC)C3 (centres undefined)
    -0.98 | -0.37
CCOc1ccc(-c2nnc3ccc(SCc4cccnc4)nn23)cc1
    x | -1.6
CC(=O)Nc1cccc(-n2[nH]nnc2=S)c1
    x | -0.6
O=C(CCC1CCCC1)Nc1ccc2nc(NS(=O)(=O)c3ccccc3)sc2c1
    -1.5 | x
O=C(CSc1nc2ccccc2s1)Nc1ccc2nc(SCC(=O)Nc3ccccc3F)sc2c1
    x | -4.1
C1=C(c2ccccn2)NN=C(c2ccccn2)C12c1ccccc1Oc1ccccc12
    x | 1.8
CC1CSc2ccc(S(=O)(=O)N3CCN(c4cccc(Cl)c4)CC3)cc2NC1=O (centres undefined)
    0.72 | x
O=C(O)C1CCCCN1S(=O)(=O)c1ccc(Cl)cc1 (centres undefined)
    x | -2.3
O=C(CCCC(=O)c1ccccc1)Nc1ncn[nH]1
    0.54 | x
O=c1c2cc3c(cc2nc(SCc2nc(-c4ccccc4)no2)n1C1CCCC1)OCO3
    1.3 | x
Cc1cc(N2CCC(C)CC2)nc2cccc(O)c12
    -1.4 | -1.3
CC(C)NC(=O)N1c2ccccc2Sc2ccccc21
    -1.4 | -1.3
COc1ccc2[nH]c(C)cc(=O)c2c1
    0.51 | -1
CCc1ccc(Cc2cnc(NC(=O)c3ccc4snnc4c3)s2)cc1
    -0.5 | 0.3
CCS(=O)(=O)Nc1ccc2sc(NC(=O)C3CCCCC3)nc2c1
    1.5 | x
Cn1c(=O)c(=O)n(C)c2cc(NC(=O)c3sc4ccccc4c3Cl)ccc21
    -1.1 | -0.14
CCn1nc(C)c(NC(=O)CCSc2nc(-c3ccco3)cc(C(F)(F)F)n2)c1C
    3.9 | -0.47
Cc1cc(N2CCN(C)CC2)nc(N2CCN(C(=O)Nc3ccc(Cl)cc3)CC2)n1
    0.85 | x
COc1ccc2c(c1)CC(NC(=O)N1CCOCC1)CO2 (centres undefined)
    0.3 | x
CS(=O)(=O)NCCS(=O)(=O)N1CCN(Cc2ccccc2)CC1
    1.1 | x
COc1ccc(-c2noc(COc3cc(C)ccc3C)n2)cc1OC
    x | -1.6
Cc1cc(NS(=O)(=O)c2ccc(Nc3nc(-c4ccc(O)cc4O)cs3)cc2)no1
    x | -1.8
COc1ccc(N(Cc2ccccn2)C(=O)c2ccc(F)cc2)cc1
    x | -0.11
CC(Oc1ccc(O)cc1)(P(=O)(O)O)P(=O)(O)O
    26* | x
Cc1cccc(NS(=O)(=O)c2cc(-c3cnc(C)o3)ccc2C)c1
    2 | x
CCc1cc2c(cc(C(=O)O)n2CC(=O)c2ccccc2)s1
    1 | -0.51
O=C(CS(=O)Cc1cnn(-c2ccccc2)c1-n1cccc1)N1CCc2ccccc21 (centres undefined)
    1.8 | x
Cc1nn(-c2nc3ccccc3[nH]2)c2c1C(c1ccc([N+](=O)[O-])s1)CC(=O)N2 (centres undefined)
    2.1 | x
CCCCCn1c(=O)c2c(nc3n2CCN3Cc2ccco2)n(C)c1=O
    1.6 | x
CCc1ccc(Nc2nc3ccccc3n3cnnc23)cc1
    1.6 | -0.59
O=C(CN1c2ccccc2NC2=C(C(=O)CCC2)C1c1cccs1)NC1Cc2ccccc2C1 (centres undefined)
    -0.24 | x
O=C(Nc1cnc2sccn2c1=O)c1ccc(F)cc1
    -0.11 | -0.89
O=C(Cn1ncc2c([nH]c3ccccc32)c1=O)Nc1ccccn1
    1.4 | x
CCCCCN=C1NS(=O)(=O)c2ccccc21
    -1.4 | 1.8
O=C(CN1CCSc2ccc(S(=O)(=O)N3CCCC3)cc21)NC1CCCC1
    -1.1 | x
CN(C)c1ccc(NC(=O)C2CC(=O)N(c3ccc(Cl)cc3)C2)cc1 (centres undefined)
    -0.38 | -1.3
CCN(CC)c1c(S(=O)(=O)c2ccc(OC)cc2)cnc2cc3c(cc12)OCCO3
    -1.2 | 0.54
O=C(CCS(=O)(=O)c1cccc2nsnc12)NC1CCCc2ccccc21 (centres undefined)
    0.81 | -2.3
COc1cccc(OCc2nc(-c3ccc(OC)c(OC)c3)no2)c1
    -0.78 | -1.3
CCOc1ccc(N2CC(c3nc4ccccc4n3CC)CC2=O)cc1 (centres undefined)
    -0.56 | -3.2
O=C(Nc1nn2c(-c3cccs3)nnc2s1)c1ccccc1
    2 | -3.2
CCCCCC1CC(CC(=O)NC(=S)Nc2nncs2)C(=O)O1 (centres undefined)
    x | -1.5
Cc1cc(C)c(Cn2c3ccccc3c3cnn(CC(=O)NCc4ccccn4)c(=O)c32)c(C)c1
    -0.49 | -4.7
Cc1nn(-c2nncc(-c3ccc(F)cc3)n2)c2c1C(c1ccc3c(c1)OCO3)CC(=O)N2 (centres undefined)
    3 | -0.77
CCN(CC)C(=O)c1noc2c1COc1ccccc1-2
    1.4 | -1.1
Cc1cc(C)cc(N(C(=O)C2CCCC2)C2C=CS(=O)(=O)C2)c1 (centres undefined)
    0.78 | -3.1
COc1ccccc1-c1nc(S(=O)(=O)c2ccc(Cl)cc2)c(N(C)C)o1
    x | -1
COCCN(Cc1ccco1)c1nc(-c2ccc(OC)cc2)nc2ccccc12
    -0.2 | x
CCOc1cc(/C=C2/SC(=S)N(c3ccccc3)C2=O)ccc1OS(=O)(=O)c1ccccc1[N+](=O)[O-]
    x | -1.8
COc1ccccc1OCCSc1nc2ncnc(N)c2[nH]1
    -9.7 | -0.18
Cc1ccc2nc(-n3nc(C)c4c3NC(=O)CC4c3ccccc3)sc2c1 (centres undefined)
    -0.05 | x
Cc1nnc(N2C(=O)C(=O)/C(=C(/O)c3ccccc3)C2c2ccccc2F)s1 (centres undefined)
    1.1 | -2.4
C=CCc1cccc2cc(C(=O)N3CCN(C(=O)c4ccccc4)CC3)c(=O)oc12
    x | -2
COc1ccc(-c2noc(-c3nnn(-c4cc(F)ccc4F)c3C)n2)cc1OC
    -0.89 | x
CN1CCN(C(=O)c2cnn3c4c(cnc23)CCCC4)CC1
    -0.3 | x
COC(=O)C1Sc2[nH]c(=O)sc2C2c3ccccc3OC(=O)C12 (centres undefined)
    x | -5.7
O=S(=O)(NCCS(=O)(=O)N1CCN(c2ccccc2F)CC1)c1ccc(Cl)cc1
    -1.6 | x
COc1ccc(C(=O)c2cn(Cc3cccc(F)c3)c3cc4c(cc3c2=O)OCO4)cc1
    -0.75 | -1.1
COc1cc2nc(Nc3ccc(C)c(Cl)c3)nc(N)c2cc1OC
    1.3 | 4.9
CCN(CC)CCNc1nc(Nc2cccc(C)c2)c2cnn(C)c2n1
    0.47 | x

(further entries)
canonical_smiles | TAR Tat displ | CDC25B-CDK2 inh
CCC(C(=O)Nc1ccccc1Cl)n1c2ccccc2c2nc(=O)cc(C)n21 (centres undefined) | -7.5 | -0.45
O=C(O)C1CCCN(c2nn3cc(-c4ccc(F)cc4)nc3s2)C1 (centres undefined) | 0.96 | 0.6
CCOC(=O)Cn1c(=O)oc2cc(S(=O)(=O)N3CCN(c4ccccn4)CC3)ccc21 | -0.51 | -0.91
CCOC(=O)c1ccc(Oc2nc(C)nc3sc4c(c23)CCCC4)cc1 | 2.4 | x
CC(C)CNC(=O)c1noc(C(C)C)c1[N+](=O)[O-] | -0.02 | -0.37
O=c1[nH]c2ccc(S(=O)(=O)N3CCC(c4ccncc4)CC3)cc2o1 | 1.1 | x
CCOC(=O)N1CCN(Cc2nc3c(c(=O)n(C)c(=O)n3C)n2CC(C)C)CC1 | -0.58 | -2.2
Cn1c(=O)[nH]c(=O)c2c1nc(N1CCOCC1)n2Cc1ccccc1 | -0.66 | -0.86
CC1CCN(C(=O)C2CCCN(S(=O)(=O)c3ccc4c(c3)C(C)(C)C(=O)N4C)C2)CC1 (centres undefined) | 1.3 | -2.6
CCN1/C(=C\C=C\c2n(CCCS(=O)(=O)[O-])c3cc(C#N)ccc3[n+]2CC)Oc2ccc(-c3ccccc3)cc21 | x | -0.94
CC(C)N(C(=O)Cc1noc2ccccc12)C1CCCCC1 | 2.6 | -0.66
CCC1CN(C(=O)N2CCC(C(=O)O)CC2)c2cc(C)ccc2O1 (centres undefined) | 2.2 | 1
Fc1ccc(-c2nnc3sc(C4COc5ccccc5O4)nn23)cc1 (centres undefined) | 2.2 | -2.2
CCOc1ccc(C2N=C(N)Nc3nc4ccccc4n32)cc1 (centres undefined) | -1.4 | -1.5
COc1ccc(OC)c(S(=O)(=O)Nc2ccc3c(c2)N(S(C)(=O)=O)CCC3)c1 | -0.59 | x
CCOC(=O)C1=C(C)NC2=C(C(=O)C(C(=O)OC)C(C)C2)C1c1cccc(Cl)c1 (centres undefined) | 0.61 | 0.51
Cc1cn2c(=O)cc(COC(=O)C3CCCCC3)nc2s1 | 0.84 | x
CC1Sc2ccc(S(=O)(=O)Nc3ccc(F)cc3)cc2NC1=O (centres undefined) | 0.93 | x
COc1ccc(N2CCN(C(=O)CCCc3nnc4n(C)c(=O)c5sccc5n34)CC2)cc1 | 1.1 | 0.81
CCC(CC)C(=O)Oc1ccc(-n2cnnn2)cc1 | -0.63 | -0.91
Cn1c2ccccc2c2cnn(CC(=O)NCCc3c[nH]c4ccccc34)c(=O)c21 | 0.62 | -0.21
Cc1noc(/C=C/c2ccco2)c1S(=O)(=O)N1CCC(C(=O)N2CCCCC2)CC1 | 0.57 | x
O=C1CC(c2ccc3c(c2)OCO3)c2c(n[nH]c2-c2ccc(Cl)cc2)N1 (centres undefined) | -0.68 | 1.4
Cc1oc(C(C)(C)C)cc1C(=O)NCc1csc(-c2cccs2)n1 | x | -3.2
Cn1cnc(S(=O)(=O)N2CCCC(C(=O)N3CCN(c4ccccn4)CC3)C2)c1 (centres undefined) | 0.72 | x
Cn1c(=O)c2c(nc(CN3CCOCC3)n2Cc2ccc(F)cc2)n(C)c1=O | 1.1 | -1.5
CC(SCCc1ccccn1)C(=O)O (centres undefined) | 1.4 | -0.87
CC(C)(C)NS(=O)(=O)c1cc2c3c(c1)CCN3C(=O)CC2 | 2 | x
O=C1C(NCc2ccccc2)=C(NCc2ccccc2)C(=O)c2ccccc21 | x | 1.6
CC(C)CNc1ncnc2onc(-c3ccc(Cl)cc3)c12 | 1.1 | -0.64
O=C1Cc2cc(S(=O)(=O)N(Cc3ccccc3)c3ccccc3)cc3c2N1CCC3 | 1.5 | x
N#CC(NC(=S)Nc1cccc(Cl)c1)c1ccccc1 (centres undefined) | x | -1.2
CC(C)NC(=O)C1CCCN(c2cnc3ccccc3n2)C1 (centres undefined) | 2.1 | x
C=CCN1C(=O)C(O)(CC(=O)c2ccc(C(C)C)cc2)c2cc(Br)ccc21 (centres undefined) | 0.35 | 0.48
COc1ccc(-n2nnc(-c3nc(-c4ccccc4)no3)c2N)cc1Cl | -0.15 | x
COc1ccc(Br)cc1C1C(C#N)=C(N)Oc2cc(O)ccc21 (centres undefined) | -2.8 | -1.4
CCCCNC(=O)c1cccn1-c1nnc(N2CCCCC2)s1 | 0.44 | x
O=C(C1CCN(c2ccc(Cl)cc2)C1=O)N1CCN(c2ccccn2)CC1 (centres undefined) | -0.85 | x
O=S(=O)(NCCc1csc(-c2cccc(F)c2)n1)c1cc(F)ccc1F | 1.8 | x
Cc1ccc(C)c(-c2nnc(NC(=O)c3ccc4c(c3)OCCO4)o2)c1 | 0.95 | x
Cc1cc(C)c(NC(=O)CSc2nnc(C)n3c2cc2sccc23)c(C)c1 | 0.63 | x
CC1=C(C(=O)OC(C)C)C(c2ccc(Cl)cc2)C(C(=O)OC(C)C)=C(C)N1 | x | -2.9
COc1ccccc1-c1nc2c(c(=O)[nH]1)Cc1cc(Br)cc(OC)c1O2 | 1.4 | -1.1
CCC(C(=O)N1CCOCC1)n1nc(C)c2c(C)n(-c3ccccc3)nc2c1=O (centres undefined) | 0.76 | x
CC(C)(C)c1ccc(C(=O)c2ncc[nH]2)cc1 | x | -0.86
CCOC(=O)c1cn[nH]c1S(=O)(=O)N1c2ccccc2CC1C (centres undefined) | 0.11 | x
On1nnc2ccc(C(F)(F)F)cc21 | x | -3
Cc1ccnc(NS(=O)(=O)c2ccc(F)c(C)c2)c1 | 0.74 | -1.5
O=C(Nc1cccc(Cl)c1)c1c(O)c2cccc3c2n(c1=O)CC3 | 1.2 | x
CN(C)[C@@H]1C(=O)C(C(=O)NCN2CCCC2)=C(O)[C@@]2(O)C(=O)C3=C(O)c4c(O)cccc4[C@@](C)(O)C3CC12 (some centres undefined) | 14* | x
CN(CCCNC(=O)C1CCCN(c2nnc(-n3cccc3)s2)C1)C1CCCCC1 (centres undefined) | 0.89 | x
COCCCNc1nc(-c2ccc(OC)cc2)no1 | -0.27 | x

Source: PubChem BioAssay

The order is random; overall some 0.87% were active at least once.
